Assay outcomes (PubChem BioAssay)
FGF22 binding = FGF22 (human) thermal shift binding; Q9HCT0; recombinant FGF22 thermal shift, SYPRO orange fluorescence; percent of sucrose octasulfate shift, DMSO zero; calls only at 9.99 µM; 1.5% of 340,000 active; AID 651658;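 active = melting point raised past a set limit in the mean and every replicate; inconclusive = no clear call; three in four hits are not shown here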
HNF4A DNA FP = change in binding of human HNF4 alpha to DNA; P41235; HNF4a-FITC DNA binding, fluorescence polarization, 1 h; activity change, % at 10 µM; 0.3% of 360,000 active; AID 1224865; in the data active = activity change above about 30%, passing the limit was not always enough;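 also: controls were the assay level and a saturating level of protein; the project sought stronger binding though the title names inhibitors; some compounds called inactive have numbers as strong as hits; positive values seem to mean higher polarization but the record does not say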
ALR inh = inhibitors of human sulfhydryl oxidase ALR. purified ALR, DTT oxidation, H2O2 HRP-luminol luminescence. inhibition, % (test concentration not listed). 3.8% of 290,000 active;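 active = mean and each replicate at 75% or more; inconclusive = only one of the two met; inactive = neither met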;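 also: stock transfer was 7.5 nL into about 7.5 µL; 0% = neutral wells and 100% = wells with inactivated enzyme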
Ecoli growth = blocks Escherichia coli growth. OD600, 23 h; hits give low values. OD600 absorbance (concentration not given with the values). 0.21% of 330,000 active;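 active = OD600 absorbance below the run mean of sample wells minus 3.6 SD, in any replicate, cut at about 0.56 in these data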;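 also: stock transfer was 300 nL into about 60 µL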
UCH37 inh = human UCH37 deubiquitinating enzyme inhibition | purified proteasome/UCH37, Ub-AMC cleavage fluorescence | inhibition, % (concentration not given with the values) | 0.33% of 330,000 active | Q9Y5K5;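 active = mean of two replicates above 20%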;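 also: 0% = compound-free wells with enzyme and 100% = wells lacking proteasome; stock transfer was 100 nL into about 20 µL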
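Test system – human UCH37 enzyme supplied as purified proteasome complex · Incubation – 30 min preincubation with enzyme, 25 min cleavage at room temperature · Detection – AMC fluorescence from Ub-AMC cleavage, excitation 355 nm, emission 460 nm · Benchmarks – no-proteasome wells (full inhibition) and compound-free wells (no inhibition)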
B2AR ag = agonists of human beta-2 adrenergic receptor inducing internalization | P07550 | Am2.2-beta2AR cells, FAP receptor internalization, flow cytometry; reference of the scale not given here | response, % (concentration not given with the values) | 0.43% of 340,000 active | AID 504454;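 active = response above a set limit, near 3 SD of response in nonfluorescent compounds, cut at about 42% in these data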;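 also: stock transfer was 100 nL into about 11 µL; a reference agonist was the positive control; negative values mostly stem from fluorescent compounds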
LANA-H2B inh = blocks KSHV LANA binding to histone H2A/H2B; Q9QR71; cell-free LANA-H2A/H2B peptide, fluorescence polarization; inhibition, % (no concentration beside the values); 0.6% of 320,000 active; AID 2629; in the data active = inhibition mostly above about 10%, no sharp cut-off; inactive = mostly below about 6.7%;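 also: stock transfer was 7.5 nL into about 10 µL; 0% = median of vehicle wells and 100% = median of positive control wells; one replicate is shown; the record names a cut of 25% in any replicate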
Target sequence (Q9QR71 whole entry, looked up): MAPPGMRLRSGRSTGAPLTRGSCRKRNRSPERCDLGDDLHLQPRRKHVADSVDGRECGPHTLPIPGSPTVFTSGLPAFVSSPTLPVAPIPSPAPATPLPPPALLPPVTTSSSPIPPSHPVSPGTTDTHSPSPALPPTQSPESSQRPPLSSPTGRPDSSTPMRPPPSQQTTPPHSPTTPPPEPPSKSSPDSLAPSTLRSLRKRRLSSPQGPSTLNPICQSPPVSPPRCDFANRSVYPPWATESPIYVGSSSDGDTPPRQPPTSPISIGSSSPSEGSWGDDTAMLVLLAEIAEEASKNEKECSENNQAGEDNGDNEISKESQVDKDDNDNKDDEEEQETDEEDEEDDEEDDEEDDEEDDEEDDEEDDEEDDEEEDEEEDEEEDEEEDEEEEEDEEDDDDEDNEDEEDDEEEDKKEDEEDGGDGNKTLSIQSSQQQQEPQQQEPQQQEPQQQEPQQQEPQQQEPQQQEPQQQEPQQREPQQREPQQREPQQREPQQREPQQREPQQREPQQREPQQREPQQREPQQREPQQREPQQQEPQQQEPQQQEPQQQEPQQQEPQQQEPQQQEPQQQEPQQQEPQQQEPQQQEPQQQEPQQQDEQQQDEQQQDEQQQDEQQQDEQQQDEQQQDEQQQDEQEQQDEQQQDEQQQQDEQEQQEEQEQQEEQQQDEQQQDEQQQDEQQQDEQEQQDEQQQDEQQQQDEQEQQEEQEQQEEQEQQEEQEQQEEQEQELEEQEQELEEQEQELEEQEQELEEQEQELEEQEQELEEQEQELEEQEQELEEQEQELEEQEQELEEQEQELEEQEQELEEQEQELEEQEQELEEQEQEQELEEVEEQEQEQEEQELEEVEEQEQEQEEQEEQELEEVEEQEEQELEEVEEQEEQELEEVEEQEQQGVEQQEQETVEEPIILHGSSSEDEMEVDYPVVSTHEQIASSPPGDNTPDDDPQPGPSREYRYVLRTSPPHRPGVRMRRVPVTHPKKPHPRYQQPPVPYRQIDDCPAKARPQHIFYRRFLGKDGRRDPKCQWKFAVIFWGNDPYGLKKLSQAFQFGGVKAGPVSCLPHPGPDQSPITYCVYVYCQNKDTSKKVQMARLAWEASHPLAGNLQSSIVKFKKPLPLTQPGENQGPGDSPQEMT
Numbers without * were called inactive; i = inactive; u = inconclusive; x = no result given. A portion of the library (hit frequency here may not be typical).

HNF4A DNA FP	Ecoli growth	FGF22 binding	UCH37 inh	ALR inh	B2AR ag	LANA-H2B inh	canonical_smiles
1.8	x	i	x	15.3	5.5	22.3*	O=C(Cn1cc(C(F)(F)F)ccc1=O)Nc1cccc(S(=O)(=O)N2CCOCC2)c1
1.8	0.716	i	6.4	-3.3	8.9	-3.9	O=C(Nc1nccs1)C1CCCN1/C=C/C(=O)C(F)(F)F (centres undefined)
3.2	0.753	i	4.4	-1.1	-3.9	1.3	Cc1ccc(N=C2NC(=O)/C(=C/c3cccn3C)S2)cc1C
1.1	x	i	x	x	-17.4	x	CC(=NNC(=S)N1CC2CCC(CC2)C1)c1ccncn1
2.2	0.757	x	-3.1	-5.7	15.4	-1.8	CC(=O)Nc1ccc2nc(SCC(=O)O)sc2c1
1.5	0.679	i	2.0	1.5	3.7	-4.3	Cc1ccc(NS(=O)(=O)c2ccc3c(c2)NC(=O)CO3)cc1Cl
3.4	0.682	x	0.6	-1.0	-9.6	0.7	CCN(CC(=O)Nc1c(F)cccc1F)C(=O)c1ccc(S(=O)(=O)N2CCCCC2)cc1
2.3	0.734	x	4.6	-14.0	-8.0	0.0	CN(C)CCn1c(=O)n(Cc2ccco2)c(=O)c2c3c(sc21)CCCCC3
0.0	0.722	i	2.9	4.1	-6.6	2.6	O=C(NCc1ccccc1Cl)c1cnc2n(c1=O)CCS2
0.8	0.7	x	-2.1	-2.0	-4.3	-1.8	Cc1nn(CC#N)c(=O)n1-c1ccc(F)cc1
-2.1	0.66	i	2.4	-7.7	-3.2	0.6	Cc1ccc(S(=O)(=O)N(C)CC(=O)OCC(=O)N2CC(=O)Nc3ccccc32)cc1
-0.9	0.676	i	6.9	-1.6	-9.2	-2.3	CC(OC(=O)CN1C(=O)COc2ccccc21)C(=O)NCc1ccc(F)cc1 (centres undefined)
-2.2	0.657	i	1.7	-0.6	16.8	5.0	CN(C)CCCN(Cc1ccccc1)C(=S)Nc1ccc(F)c(Cl)c1
2.6	0.707	i	7.7	x	3.4	2.1	Cc1onc(-c2ccccc2Cl)c1C(=O)OCC(=O)c1ccc[nH]1
-0.2	0.678	i	3.0	x	6.0	0.0	Cc1cc(OCc2cc(C(=O)N(C)CCCN3CCOCC3)no2)cc(C)c1Cl
10.7	0.689	x	1.2	x	12.4	x	O=C(CN1CCCc2ccccc21)Nc1cccc(S(=O)(=O)N2CCOCC2)c1
-2.0	0.651	i	0.4	-2.1	-6.0	-2.3	CCCCn1c(N)c(N(CCC(C)C)C(=O)CC2CCCC2)c(=O)[nH]c1=O
-1.4	0.688	i	-0.2	4.0	-11.1	-0.6	COc1ccc(Cc2nc3ccc(C(=O)NCc4cc(C)no4)cc3o2)cc1
-89.3	x	x	x	9.1	-7.9	87.2*	C/C(=N/NC(=O)c1ccncc1)c1cc2ccc(O)cc2oc1=O
0.6	0.705	x	1.0	-8.2	0.1	-3.8	C=CCn1c(CC#N)nnc1N1CCOCC1

Look-ups from the entries so far.
In Ecoli growth, C=CCn1c(CC#N)nnc1N1CCOCC1 shows 0.705
In B2AR ag, CN(C)CCn1c(=O)n(Cc2ccco2)c(=O)c2c3c(sc21)CCCCC3 shows -8.0

Next records follow:
HNF4A DNA FP	Ecoli growth	FGF22 binding	UCH37 inh	ALR inh	B2AR ag	LANA-H2B inh	canonical_smiles
-0.5	0.731	i	4.5	26.8	-3.7	3.2	CCn1c(=O)c(-c2cc(=O)[nH][nH]2)c(O)c2ccccc21
-3.0	0.695	x	4.5	4.1	2.5	0.1	CCOc1ccc(C(C)=O)cc1COc1ccc(-n2cnnn2)cc1
-0.4	0.777	x	4.6	-7.8	-9.8	2.4	CC(=O)N1CCN(c2ccccc2NC(=O)COc2ccc(Cl)cc2Cl)CC1
0.2	0.655	i	-81.3	1.0	-1.4	1.2	COc1cc(/C=C/C(=O)OCC(=O)Nc2ccc3c(c2)OCCO3)ccc1OCC#N
-2.5	0.632	i	2.1	19.6	14.1	-3.6	C=CCN(c1ccc(C(=O)NCCSc2ccccc2)cc1)S(C)(=O)=O
-0.6	0.658	i	0.9	-2.6	-8.6	3.3	O=C(Nc1cccc(S(=O)(=O)N2CCCCC2)c1)c1cnccn1
-0.1	0.684	i	-0.7	u	2.6	-3.2	C[C@@H](C(=O)N1CCN(c2ccccc2)CC1)N1C(=O)C2CC=CCC2C1=O (some centres undefined)
-0.3	0.657	i	-0.1	-6.1	-5.4	0.8	O=C(Nc1cccc(C(=O)NC2CCCC2)c1)c1ccccc1
-2.2	x	i	x	x	-3.8	x	COc1ccccc1C=NN=Cc1ccccc1OC
-1.3	0.681	x	1.3	x	9.6	x	Cc1cccc(NS(=O)(=O)c2cnc[nH]2)c1
-0.1	0.653	x	0.4	-1.9	-4.4	0.6	O=C1c2ccccc2C(=O)N1CCCOCc1c[nH]c(=O)[nH]c1=O
-2.5	0.697	i	0.3	97.4*	0.1	-5.3	CC(C)=NNc1nc(-c2ccccc2)cs1
1.7	0.659	i	3.0	-3.4	12.4	-4.4	CCC(=O)Nc1c2c(nn1-c1ccc([N+](=O)[O-])cc1)CS(=O)(=O)C2
0.3	0.655	i	0.3	3.3	-3.0	-3.2	O=C(O)c1ccc(NC(=O)c2ccc(Cl)cc2)c(NC(=O)c2ccc(Cl)cc2)c1
1.7	0.794	x	5.3	-0.8	6.6	0.8	CC(=O)N(CCP(=O)(c1ccccc1)c1ccccc1)Cc1ccco1
3.8	0.678	i	2.5	x	7.4	7.6	O=C(CN1CCCCCC1)Nc1ccc(S(=O)(=O)N2CCCCC2)cc1
4.9	0.627	i	2.7	-0.5	2.2	-4.6	Oc1cccc2c(NC(=S)Nc3ccc(SC(F)F)cc3)cccc12
-2.3	0.665	i	4.5	0.4	-5.8	-1.7	CN(NC(=O)c1ccc(Cl)cc1)c1ncc(C(F)(F)F)cc1Cl
5.8	0.718	i	3.7	-33.2	4.7	-0.4	CCN(CC)S(=O)(=O)c1cc(C(=O)OCC(=O)Nc2cccc(C)c2C)ccc1F
-1.3	0.708	x	2.2	-6.7	-0.2	3.7	O=C1C2CC=CCC2C(=O)N1CNc1ccccc1 (centres undefined)
3.1	0.627	i	0.1	-12.5	4.8	-4.5	CCOC(=O)N1CCN(C(=O)Cc2ccccc2OC)CC1
0.1	0.71	i	1.6	5.0	-0.9	7.4	CC(=O)NC1(c2ccccc2)CCN(c2cc(C)nc(-c3ccccc3)n2)CC1
-1.1	0.719	i	5.5	x	5.3	-0.7	CCOC(=O)CCNC(=O)CCc1nnc(CCCc2ccccc2)o1
x	0.712	i	-7.2	-1.9	x	-5.3	Cn1c(SCC(=O)NCc2ccc(F)cc2)nc2c([nH]c3ccccc32)c1=O
0.6	x	x	x	0.4	-3.0	2.6	Cc1ccc(S(=O)(=O)N(CC(=O)N/N=C/c2ccco2)c2cc(Cl)cc(Cl)c2)cc1
0.8	0.663	x	7.1	-0.8	0.4	0.9	O=C(Nc1ccc([N+](=O)[O-])cc1)/C(=C/c1cccc([N+](=O)[O-])c1)NC(=O)C1CCCCC1
7.8	0.746	x	6.1	-1.2	-3.8	3.6	CSCCC(NC(N)=O)C(=O)NCC1CCCCC1 (centres undefined)
2.0	0.624	i	0.9	x	-3.5	x	O=S1c2ccccc2Sc2ccccc21
-0.6	0.681	x	-0.5	3.7	4.5	-2.5	COCC(=O)n1nc(-c2ccc(Cl)cc2)nc1NCc1ccc(F)cc1
1.9	0.711	x	0.4	-2.9	-1.4	-4.0	S=C1N(c2ccccc2)C(c2ccccc2)N2CCCN12 (centres undefined)
-0.6	0.664	i	6.2	-2.7	-0.9	2.4	CCn1cc(C(=O)NCCCN2CCN(C)CC2)c(=O)c2cc(S(=O)(=O)N3CCc4ccccc4C3)ccc21
-1.4	0.694	x	0.4	2.5	-4.0	-1.5	Cc1onc(-c2ccccc2Cl)c1C(=O)Nc1ncn[nH]1
-1.5	0.705	i	3.9	-1.3	-2.4	3.1	COC(=O)c1cccnc1-n1c(=O)c2cccnc2n(Cc2cccc(C(F)(F)F)c2)c1=O
-0.6	0.66	x	5.3	-1.7	0.0	4.2	CS(=O)(=O)Nc1ccc(C(=O)NCCc2ccccc2)cc1
2.0	x	i	x	9.1	-0.9	1.3	CCOC(=O)C1=C(c2ccccc2)NC(=O)NC1c1ccc(O)c(Cl)c1 (centres undefined)
2.4	0.734	i	1.6	-3.1	-10.3	1.1	CCC(c1nnc(SCC(=O)Nc2cc(Cl)ccc2C#N)n1C1CCCCC1)N(C)C (centres undefined)
-0.5	0.73	x	8.1	46.1	-4.9	-0.1	CCN(CC)Cc1cc(NC2=NS(=O)(=O)c3ccccc32)ccc1OC(=O)C(C)C
x	0.775	x	-1.8	0.8	x	3.8	Cc1cc(C)n2nc(SCc3cc(=O)oc4cc(C)c(C)cc34)nc2n1
0.6	0.711	i	3.5	x	-1.9	6.8	O=[N+]([O-])c1ccc(N2CCN(c3ccccn3)CC2)c(Cl)c1
-2.7	0.709	i	2.9	3.1	-2.7	-5.1	CNC(=O)Cc1csc2ccc(C)cc12
0.1	0.701	x	3.7	-0.6	-4.8	1.6	COc1cc(OC)c(C2=NOC(C(=O)Nc3c(C)nn(CC(=O)N4CCCC4)c3C)C2)cc1Cl (centres undefined)
-3.6	0.738	x	0.2	-0.2	-9.9	-0.3	O=C(Cn1c(NCCO)nc2ccccc21)NCCc1ccccc1
0.7	0.69	i	3.2	-4.3	0.4	2.9	O=C1NC2=C(C(=O)OC2)C(c2ccc(OC(F)(F)F)cc2)N1 (centres undefined)
0.9	0.68	i	3.8	-10.6	13.1	6.4	COc1ccccc1NC(=S)NCCc1ccc(F)cc1
-1.2	0.674	x	-0.9	x	-5.5	1.5	CCOc1ccc(S(=O)(=O)NCCC(=O)NC2CCC(C)CC2)cc1 (centres undefined)
2.1	0.609	i	1.5	-0.7	3.7	-1.0	Cc1cccc(COC(=O)CCCNC(=O)c2ccc(Cl)cc2)c1
-0.2	0.695	i	1.8	-7.3	-3.2	-3.8	COc1ccc(NC(=O)COc2cccc3c2OC(C)(C)C3)cc1OC
6.4	0.725	i	-33.6	-17.2	0.5	0.9	CCS(=O)(=O)NCCc1csc(-c2ccc(OC)c(OC)c2)n1
0.1	0.607	i	6.4	-29.2	0.1	1.9	O=C1c2cc([N+](=O)[O-])ccc2-c2ncccc21
-1.0	0.711	i	-1.3	2.2	-3.5	-8.6	O=C(NNC(=O)c1ccc(=O)[nH]c1)c1ccc(NS(=O)(=O)c2cccs2)cc1
-0.7	0.683	x	1.7	22.5	1.3	2.2	CNC(=S)NNC(=O)Cc1ccc(O)cc1
2.5	0.676	x	4.8	-15.7	12.7	3.1	Cc1cc(C)c2c(=O)n(CC(=O)Nc3ccc(Cl)cc3)sc2n1
-7.6	0.67	i	0.7	-2.6	10.5	-5.8	CCOc1ccc(NS(=O)(=O)c2ccc3ncsc3c2)cc1
-1.4	x	i	0.4	-9.5	1.1	-7.4	Nc1nc(Cl)nc2c1ncn2[C@@H]1O[C@H](CO)[C@@H](O)[C@H]1O
1.8	0.697	x	-56.1	x	3.9	x	CN(C)c1ccc(-c2nn3c(-c4ccc(Cl)cc4)nnc3s2)cc1
-0.3	0.722	x	-0.4	94.2*	-0.9	2.9	Cc1cccc(Nc2nc(-c3cccs3)cs2)n1
1.6	0.633	i	5.3	x	7.7	0.4	Cc1ccc(S(=O)(=O)N(C)CC(=O)Oc2ccc(-c3nnco3)cc2)cc1
1.6	0.679	x	-0.2	-9.8	3.7	-5.6	CCN(Cc1ccccc1)S(=O)(=O)c1ccc(S(=O)(=O)N(Cc2ccccn2)Cc2ccco2)cc1
0.6	x	i	x	-11.4	8.6	2.1	C/C(=N\NC(=O)c1c(Cl)cnn1C)c1cccc(NC(=O)c2ccc(C)cc2)c1
0.1	x	i	x	98.6*	6.5	7.9	Cc1ccc(/C=N/Nc2ccc3ccccc3n2)o1
1.1	0.73	x	3.7	3.4	2.0	5.9	CCCCNC(=O)COC(=O)c1ccc(Cl)c(S(=O)(=O)N2CCCC2)c1
